# Source: PubChem
# ALR inh: human ALR oxidase inhibition via reduced H2O2. P55789. purified ALR, DTT oxidation, H2O2 HRP-luminol luminescence. inhibition, % (concentration not given with the values). 290,000 compounds, 3.8% hits;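 active = mean and each replicate at 75% or more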;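 note: stock transfer was 7.5 nL into about 7.5 µL; 0% = neutral wells and 100% = wells with inactivated enzyme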
# Target sequence (P55789 whole entry, looked up): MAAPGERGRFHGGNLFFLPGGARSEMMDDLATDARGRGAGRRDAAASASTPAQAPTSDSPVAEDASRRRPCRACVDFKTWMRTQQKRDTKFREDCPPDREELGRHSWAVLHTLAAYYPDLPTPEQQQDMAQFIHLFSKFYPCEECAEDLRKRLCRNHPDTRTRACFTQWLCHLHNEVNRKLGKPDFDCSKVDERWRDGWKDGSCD
# HNF4A DNA FP: change in binding of human HNF4 alpha to DNA; HNF4a-FITC DNA binding, fluorescence polarization, 1 h; activity change, % at 10 µM; 360,000 compounds, 0.3% hits; AID 1224865; in the data active = activity change above about 30%, passing the limit was not always enough;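 note: controls were the assay level and a saturating level of protein; the project sought stronger binding though the title names inhibitors; some compounds called inactive have numbers as strong as hits; positive values seem to mean higher polarization but the record does not say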
# FGF22 binding: FGF22 (human) thermal shift binding | calls only at 9.99 µM | recombinant FGF22 thermal shift, SYPRO orange fluorescence; percent of sucrose octasulfate shift, DMSO zero | Q9HCT0 | 340,000 compounds, 1.5% hits;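 active = melting point raised past a set limit in the mean and every replicate; three in four hits are not shown here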
# Target sequence (Q9HCT0 whole entry, looked up): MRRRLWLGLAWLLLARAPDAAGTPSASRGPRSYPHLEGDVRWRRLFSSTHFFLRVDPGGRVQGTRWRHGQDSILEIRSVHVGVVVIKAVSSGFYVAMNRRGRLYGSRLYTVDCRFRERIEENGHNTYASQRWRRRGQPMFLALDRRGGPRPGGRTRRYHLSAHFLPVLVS
# Ecoli growth: inhibitors of Escherichia coli growth; 330,000 compounds, 0.21% hits; AID 1053175; OD600, 23 h; stronger effect = lower value; OD600 absorbance (no concentration beside the values);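 active = OD600 absorbance below the run mean of sample wells minus 3.6 SD, in any replicate, cut at about 0.56 in these data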;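 note: stock transfer was 300 nL into about 60 µL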
# AF4-AF9 inh: MLL-AF4/AF9 protein interaction inhibition; AlphaScreen, biotin-AF4 peptide binding to FLAG-AF9; inhibition, % at 10 µM; 350,000 compounds, 0.47% hits; AID 651704;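 active = every replicate reaching a set inhibition limit, whatever the replicate mean, cut at about 25% in these data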;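 note: 0% = plate neutral control median and 100% = total signal loss; the record names both 10 and 1 µM as test concentration; the first replicate is given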
# Target sequence (P42568 whole entry, looked up): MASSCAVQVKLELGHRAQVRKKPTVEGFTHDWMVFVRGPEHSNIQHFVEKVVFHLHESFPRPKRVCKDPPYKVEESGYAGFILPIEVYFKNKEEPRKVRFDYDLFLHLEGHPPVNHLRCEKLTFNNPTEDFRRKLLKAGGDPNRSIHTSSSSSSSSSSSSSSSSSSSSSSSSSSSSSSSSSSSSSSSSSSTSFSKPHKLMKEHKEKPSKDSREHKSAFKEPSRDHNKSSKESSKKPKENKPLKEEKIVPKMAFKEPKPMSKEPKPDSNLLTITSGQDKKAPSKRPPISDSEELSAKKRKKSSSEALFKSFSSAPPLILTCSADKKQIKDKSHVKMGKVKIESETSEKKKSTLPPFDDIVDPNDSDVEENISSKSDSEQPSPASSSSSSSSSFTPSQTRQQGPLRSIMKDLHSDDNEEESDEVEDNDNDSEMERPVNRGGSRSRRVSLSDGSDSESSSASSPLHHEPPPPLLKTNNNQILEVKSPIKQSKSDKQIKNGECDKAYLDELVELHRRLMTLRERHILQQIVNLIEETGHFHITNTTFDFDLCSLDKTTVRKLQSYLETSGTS
# Vif TR-FRET: inhibitors of Vif binding to APOBEC3G peptide, primary screen, biochemical, TR-FRET, GST-Vif 1-94, biotin-A3G peptide, dose response retest (AID 1117319); TR-FRET GST-Vif / biotin-A3G peptide binding; higher % means a stronger effect; test concentration not given here; strong numbers were not always called active; one-dose inhibition, %; IC50 in µM for titrated hits; 260,000 compounds, 0.57% hits;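 active = above the screen mean plus three standard deviations and confirmed in dose response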;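 note: Vif residues 1-94 fused to GST binding biotinylated APOBEC3G peptide 110-148; 0% = full assay without inhibitor and 100% = GST in place of GST-Vif; retest series ran down from 100 µM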
# rRNA inh HTS: selective bacterial rRNA inhibition in E. coli; 350,000 compounds, 1.6% hits; E. coli WT GFP vs humanized-ribosome RFP mutants, fluorescence, 24 h; stronger effect = lower value; DMSO median 0, no signal -100; GFP signal change (wild-type ribosome), % (test concentration not listed);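 active = significant combined selectivity score with lowered wild-type GFP, culture density cut under 30%, mutant RFP and density less affected; inactive = any of these conditions unmet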; note: one replicate is shown; some compounds called inactive have numbers as strong as hits
# rRNA inh HTS OD600: further read-out of rRNA inh HTS, marked with its call; OD600 change, %; measured here: OD600 growth;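 optical density of the mix in the first replicate; 0 = DMSO median and -100 = no signal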
# rRNA inh HTS RFP: also measured in rRNA inh HTS; calls as there; RFP signal change, %; measured here: RFP humanized mutant strains;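 first replicate; 0 = DMSO median and -100 = no signal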
# Starred values were filed as active, the others as inactive; i = inactive; / = no result given.
SMILES,ALR inh,HNF4A DNA FP,FGF22 binding,Ecoli growth,AF4-AF9 inh,Vif TR-FRET,rRNA inh HTS,rRNA inh HTS OD600,rRNA inh HTS RFP
CCc1cnc(N2[C@H](C#N)[C@@H](c3ccc(C#Cc4ccccc4F)cc3)[C@@H]2CO)s1,/,/,i,/,-6.0,/,1,-2,1.3
Cc1ccccc1OCCC(=O)OCC(=O)NC1CC1,-11,-0.7,i,0.72,-0.9,-5%,2,12,0.9
O=C1c2ccccc2NC(c2ccncc2)N1c1ccccn1 (stereo not drawn),-6,16,/,0.74,/,-1%,/,/,/
CC(=O)N=c1sc2ccccc2n1C,-3,-0.6,/,0.69,/,17%,/,/,/
N/C(=N\OC(=O)c1ccc(OCC(F)(F)F)nc1)c1ccc(Cl)cc1,-25,5.1,i,0.64,2.7,30%,-2,-11,-2.6
C[C@@H]1CN([C@H](C)CO)C(=O)c2cc(NC(=O)Nc3ccc4c(c3)OCO4)ccc2O[C@H]1CN(C)C(=O)Nc1ccc(C(F)(F)F)cc1,/,/,i,/,5.2,/,-5,-3,-0.2
O=C(CN1C(=O)CSc2ccc(S(=O)(=O)N3CCOCC3)cc21)NCCCN1CCCCC1,0,0.4,i,0.68,-5.4,-10%,9,3,-1.3
N#Cc1nc(COc2ccc(F)cc2)oc1NCCN1CCOCC1,5,-2.3,/,0.7,/,6%,/,/,/
Cc1ccc(OCC(=O)O)c(O)c1,/,0.0,i,0.72,-1.4,21%,6,6,-2.4
CC(=O)Nc1ccc(S(=O)(=O)NCC(=O)NNC(=O)COc2ccccc2Cl)cc1,/,2.4,i,0.68,-1.5,3%,7,11,-1.0
CCn1cc(SCC(=O)NC2CCCC2)c2ccccc21,10,1.3,i,0.73,-11,/,1,3,2.1
O=C(/C=N\O)NCCCNCc1ccccc1,-1,0.7,/,/,/,5%,21,16,-0.3
COc1ccc(NC(=O)CN(C)C(=O)c2ccc(C)c(S(=O)(=O)N3CCCCC3)c2)cc1,/,0.0,i,0.69,11,/,-4,-7,1.0
Cc1ccc(-c2cc3cccc[n+]3cc2-c2ccc(C)cc2)cc1,16,5.5,i,0.66,-3.4,10%,-53,-81,-25
COc1ccc(OC)c(S(=O)(=O)N/N=C(/C)c2c[nH]c3ccccc23)c1,7,-1.7,i,/,-1.4,/,13,12,-0.4
CN1CC2(C(=O)c3ccccc3)CN(C)CC(C(=O)c3ccccc3)(C1)C2,-2,-4.5,/,0.71,/,9%,/,/,/
O=C(OCCc1cc2ccccc2c(=O)o1)N1CCOCC1,-4,-3.1,i,0.69,-9.9,/,0,-2,-11
O=C(O)c1c(Cl)c(Cl)c(Cl)c(Cl)c1C(=O)N1CCOCC1,1,-0.8,/,0.69,/,0%,/,/,/
CCOc1ccc(Cl)cc1S(=O)(=O)NCc1ccccn1,-1,0.3,i,0.68,-1.3,/,-6,-3,-2.1
Cc1cc(C)n(CCOc2ccc(Cl)cc2Cl)n1,-19,-0.1,/,0.69,/,-3%,/,/,/
COc1ccc(C(=O)N/C(=C\c2cn(S(=O)(=O)N(C)C)c3ccccc23)C(=O)N2CCN(C)CC2)cc1OC,/,-2.9,i,/,3.0,4%,2,2,-0.1
O=C(Cc1ccc(Br)cc1)N1CCN(C(=O)c2ccccc2)CC1,-1,0.0,i,0.71,1.2,1%,-1,-2,-6.8
COC(=O)C1CCN(C2CN(Cc3ccc([N+](=O)[O-])cc3)S(=O)(=O)C2)CC1 (stereo not drawn),/,-3.4,i,/,-1.9,/,6,7,-2.5
CCOC(=O)C1=C(CCl)NC(=O)NC1c1ccc2c(c1)OCO2 (stereo not drawn),61,1.5,i,0.64,1.0,/,8,2,0.5
CC(C)NC(=O)c1cc2c(-c3ccc(Cl)cc3)nn(C)c2s1,18,3.1,i,0.77,-7.5,-3%,10,2,-0.9

# (list continues)
SMILES,ALR inh,HNF4A DNA FP,FGF22 binding,Ecoli growth,AF4-AF9 inh,Vif TR-FRET,rRNA inh HTS,rRNA inh HTS OD600,rRNA inh HTS RFP
OC[C@@H]1CN(Cc2cccc3ccccc23)C[C@H](n2cnc3c(NCc4ccco4)ncnc32)O1,/,-0.1,i,/,1.0,/,1,-4,-0.7
CNc1nc2ccccc2n1N,-5,-0.1,i,0.68,3.9,1%,9,-1,0.9
CCN(CC)c1ccc(NC(=O)Cn2cc3c(n2)CCC(C)C3)c(C)c1 (stereo not drawn),99*,4.7,i,0.73,-0.1,7%,0,-12,-0.4
COC(=O)c1ccc(/C=N/NC(=O)C(=O)NCC2CCCO2)cc1 (stereo not drawn),0,1.6,i,/,/,-5%,5,5,-0.2
CC1(C)CC(=O)C2=C(C1)c1c(ccc3ccccc13)NC2c1cc([N+](=O)[O-])cc([N+](=O)[O-])c1O (stereo not drawn),53,-1.3,i,0.72,2.1,-2%,-13,-8,-1.2
CCCC(=O)Nc1ccc2c(c1)OC[C@H](C)N(C(=O)c1ccccn1)C[C@H](C)[C@H](OC)CN(C)C2=O,/,/,i,/,-33,/,0,5,0.9
O=C(C[C@H]1CC[C@H](NC(=O)Nc2ccc(F)cc2)[C@H](CO)O1)NCc1cccc(F)c1,/,/,i,/,-1.0,/,-3,-3,-0.7
COC(=O)C1=C[C@@H](C(=O)OC)[C@@H]2C3=C(C(=O)[C@@]2(C)NC(=O)c2ccccc2)[C@H](C)C(C(=O)OC)=C(C(=O)OC)[C@@H]3C1,-10,-2.5,i,/,0.0,/,3,9,-3.6
CC(C)NC(=O)Nc1ccc2c(c1)C(=O)N([C@@H](C)CO)C[C@H](C)[C@H](CN(C)Cc1ccccc1)OCCCC[C@@H](C)O2,/,/,i,/,2.9,/,7,3,0.0
C[C@H]1CN([C@@H](C)CO)C(=O)c2cccc(NC(=O)c3ccncc3)c2O[C@@H]1CN(C)Cc1ccc(Cl)c(Cl)c1,/,/,i,/,7.8,/,-23,-48,-1.5
CCc1ccc(NC(=O)COc2ccc(F)cc2C(=O)c2cnn(-c3ccccc3)c2)cc1,-4,2.0,i,0.69,4.8,-9%,/,/,/
COc1ccc(-c2noc(=O)n2Cc2ccc(C#N)cc2)cc1,3,1.4,i,0.62,-0.8,/,10,7,6.9
COc1ccccc1C(=O)Nc1cccnc1,-8,3.5,i,0.69,-3.5,15%,2,12,1.5
CCc1cccc2c(C(=O)COC(=O)C3=NNC(=O)CC3)c[nH]c12,-14,3.0,i,0.73,-1.8,-2%,5,-3,0.7
O=C(C[C@@H]1CC[C@@H]2[C@H](COC[C@@H](O)CN2CC2CCCCC2)O1)NCC1CC1,/,/,i,/,-3.9,/,0,7,-0.8
COc1ccc(OC)c(/C=N/NC(=O)CC(=O)NCc2ccccc2)c1,-16,-2.5,i,/,-1.5,/,14,2,1.1
COc1cccc(N2CCN(C(=O)c3cc4c(OC)c(OC)c(OC)cc4[nH]3)CC2)c1,-8,2.0,i,0.65,-2.5,-1%,23,12,3.9
CCN1[C@@H]2c3ccc(-c4ccccc4F)c(=O)n3C[C@@H]2[C@@H](CO)[C@@H]1C(=O)NC1CCC1,/,/,i,/,-2.7,/,-2,-2,-3.2
CCCC#Cc1cnc2c(c1)C(=O)N([C@H](C)CO)C[C@@H](C)[C@H](CN(C)C(=O)Nc1cc(F)ccc1F)O2,/,/,i,/,-0.6,/,2,4,2.5
Cn1cc(Br)c(C(=O)NC2CCCCCC2)n1,16,1.4,i,0.7,-2.5,/,/,/,/
COC(=O)C1=CO[C@@H](O[C@@H]2OC(CO)[C@@H](O)[C@@H](O)[C@@H]2O)C2C1CC[C@]2(C)O (stereo partly drawn),-18,-1.5,i,0.74,0.1,/,/,/,/
O=C(COC(=O)c1ccccn1)Nc1cc(Cl)ccc1Cl,/,2.4,/,0.68,/,-1%,/,/,/
COc1ccccc1NC(=O)N1CCCCN2[C@H](C1)[C@H](c1ccc(C#Cc3ccccc3)cc1)[C@@H]2CO,/,/,i,/,-2.6,/,6,14,1.6
CN(C)C(=O)c1ccc(-c2ccc([C@@H]3[C@@H](CO)N(C(=O)Cc4ccccn4)[C@H]3C#N)cc2)cc1,/,/,i,/,-4.3,/,0,17,-1.1
O=C(c1ccoc1)N1CCCC(Nc2ccc(F)c(F)c2)C1 (stereo not drawn),59,-2.8,i,0.68,-0.8,-3%,-2,4,1.8

# (next part)
SMILES,ALR inh,HNF4A DNA FP,FGF22 binding,Ecoli growth,AF4-AF9 inh,Vif TR-FRET,rRNA inh HTS,rRNA inh HTS OD600,rRNA inh HTS RFP
COc1ccc(-c2ccnc(SCC(=O)c3ccc(Br)cc3)n2)cc1,-25,-44,/,0.66,/,/,/,/,/
O=C(c1cccnc1)N1CCCCN2[C@@H](CO)[C@@H](c3ccc(C#Cc4cccnc4)cc3)[C@@H]2C1,/,/,i,/,-6.4,/,0,13,3.3
COc1cccc(-c2ncc3ccccc3c2COC(=O)c2cccs2)c1,-2,0.3,i,0.7,1.0,/,-11,-12,-1.0
CCc1ccc2[nH]c(=O)c(CN(Cc3ccco3)C(=S)NCC3CCCO3)cc2c1 (stereo not drawn),7,-0.4,i,0.69,-0.8,-4%,-30,-36,-2.4
C[C@H]1CN([C@@H](C)CO)C(=O)Cc2cc(N(C)C)ccc2O[C@@H]1CN(C)C,/,/,i,/,-0.6,/,1,0,-1.1
O=C(COC(=O)c1cnc(Cl)c(Cl)c1)NC1CCCCCC1,/,-0.5,i,0.63,0.2,/,4,8,-1.4
O=S(N1CCCCC1)C12CC3CC(CC(C3)C1)C2 (stereo not drawn),-1,5.4,/,0.69,/,-7%,/,/,/
Cc1noc(C)c1NC(=O)N1C[C@H](O)COC[C@@H]2O[C@@H](CC(=O)NCC3CC3)CC[C@H]21,/,/,i,/,-1.6,/,2,7,1.2
Cc1ccc(S(=O)(=O)N2CCOCC2)cc1NC(=O)COC(=O)c1cc(=O)[nH]c2ccccc12,-10,-0.9,i,0.69,-0.2,4%,1,-1,2.9
N#C/C(=C(/O)CCl)c1nc2ccccc2[nH]1,29,1.2,i,/,-2.9,17%,-16*,4.9*,0.8*
CC(=O)NC[C@@H]1[C@@H](c2ccc(-c3ccccc3F)cc2)[C@H](CO)N1C(C)=O,/,/,i,/,-0.4,/,1,4,6.5
O=C(CN1c2cccc3cccc(c23)S1(=O)=O)NCCc1ccccc1,-1,-0.9,i,0.69,0.7,/,6,10,2.0
O=c1[nH]c(=S)[nH]c2c1C(c1ccc(Cl)cc1)OC(C1CCCCC1)C2 (stereo not drawn),/,12,i,/,-0.1,/,-23,-37,6.1
CCOc1ccc(-n2c(C)nc(O)c2N=Nc2ccccc2)cc1,8,5.6,i,0.71,1.3,67%,9,14,1.6

# One compound at a time (already shown). Order of screens: ALR inh	HNF4A DNA FP	FGF22 binding	Ecoli growth	AF4-AF9 inh	Vif TR-FRET	rRNA inh HTS	rRNA inh HTS OD600	rRNA inh HTS RFP
# `O=c1[nH]c(=S)[nH]c2c1C(c1ccc(Cl)cc1)OC(C1CCCCC1)C2` (stereo not drawn) is listed with /	12	i	/	-0.1	/	-23	-37	6.1
# `COc1cccc(-c2ncc3ccccc3c2COC(=O)c2cccs2)c1` is listed with -2	0.3	i	0.7	1.0	/	-11	-12	-1.0
# `CCn1cc(SCC(=O)NC2CCCC2)c2ccccc21` is listed with 10	1.3	i	0.73	-11	/	1	3	2.1
# `Cc1cc(C)n(CCOc2ccc(Cl)cc2Cl)n1` is listed with -19	-0.1	/	0.69	/	-3%	/	/	/
# `O=C(/C=N\O)NCCCNCc1ccccc1` is listed with -1	0.7	/	/	/	5%	21	16	-0.3

# The list is partial. The share of hits here may be higher or lower than overall.
